# TRPML1 inh = human mucolipin-1 channel inhibition | Q9GZU1 | TRPML1-inducible cells, Ca2+ dye fluorescence, FDSS; stronger effect = lower value; inhibition of EC80 agonist-evoked calcium signal | activity change, negative = inhibition, % (no concentration beside the values) | hit rate 0.02% among 390,000 | AID 624415; in the data active means activity change below about -50%; inconclusive means about -30% to -50%; inactive means above about -30%;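 also: stimulus is agonist 54-4 at its EC80 concentration; % is scaled to controls: 0 for no effect and ±100 for the full control effect; compound concentration not given in the record; the text of the record puts the active cut at -80%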
#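 Calcium fluorescence in TRPML1-DL cells induced overnight with Tet: a 110 s read after compound pin addition, then a 110 s antagonist read after challenge with 54-4 at 4 uM final (EC80).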
# ClpP mod = qHTS Assay for Activators of ClpP | AID 651965, 2013 | purified B. subtilis ClpP, FRET peptide cleavage, 20 min | hit rate 1.9% among 340,000 | Potency, µM (doses to about 57.5 µM), inactives show at the top dose activity change, negative = active; active = well fitted falling curve with a large enough effect; inconclusive = small, poorly fitted or top-dose-only effect; inactive = no such curve, though single readings can be large or run the other way; also: potency is read from the fitted curve at half-maximal effect; the source files actives as falling curves though it sought activators and does not explain the sign; nearly all actives have a fitted effect of over 65% in size; many hits overshoot -100%
# Target sequence (P80244 whole entry, looked up): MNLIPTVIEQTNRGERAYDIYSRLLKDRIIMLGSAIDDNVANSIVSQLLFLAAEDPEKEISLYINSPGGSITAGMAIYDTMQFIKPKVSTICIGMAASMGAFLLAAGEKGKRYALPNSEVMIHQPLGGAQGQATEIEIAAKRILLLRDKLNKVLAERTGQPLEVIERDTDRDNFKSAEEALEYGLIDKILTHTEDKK
#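 Buffer: 100 mM Tris/HCl pH8, 100 mM KCl, 0.05% low protease BSA, 2.5% glycerol, 0.01% Tween-20. ClpP 10 microg/mL final; 20 min RT; delta FRET normalized to ADEP and DMSO controls.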
# Menin-MLL FL inh = menin-MLL binding inhibition, fluorescein peptide; Fluorescence polarization, fluorescein-MLL peptide displacement from menin; FP activity change, % at 61.4 µM; AID 1766; 290,000 tested, under 10 active; inconclusive = falling polarisation curve, or a change in total fluorescence; inactive = total fluorescence flat and polarisation flat or rising; no compound was filed as active; the % refers to the polarisation; negative = inhibition;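 also: % of control where 0% means no effect; inhibitors lower the polarisation; unlabelled MLL peptide was the positive control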
# TRPML1 agonist = human mucolipin-1 channel agonism. activation, % (test concentration not listed). TRPML1-expressing cells, Ca2+ dye fluorescence, FDSS; host cell line not named in the record; reference of the full effect not given here. Q9GZU1. hit rate 0.12% among 410,000. AID 624414; in the data active = activation above about 50%; inconclusive = about 30% to 50%; inactive = below about 30%; also: 0% is about no effect; the text of the record puts the active cut at 80%
#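 Tetracycline-induced TRPML1-DL cells are seeded and incubated overnight before loading with a no-wash Ca2+ dye and quencher. Agonist activity is taken from the 110 s fluorescence read following compound pin-transfer on an FDSS, before EC80 54-4 challenge.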
# TRPV1 PAM = potentiators of human vanilloid receptor 1 (TRPV1) | potentiation, % at 8.33 µM | Q8NER1 | AID 540277 | TRPV1-expressing cells, Fluo-8 calcium influx, capsaicin EC20 potentiation; host cell line not named in the record; control for the full effect not named in the record | hit rate 0.02% among 320,000; active means potentiation above 80%; inconclusive means 30% to 80%; inactive means below 30%; also: 0% is about no effect
# Target sequence (Q8NER1 whole entry, looked up): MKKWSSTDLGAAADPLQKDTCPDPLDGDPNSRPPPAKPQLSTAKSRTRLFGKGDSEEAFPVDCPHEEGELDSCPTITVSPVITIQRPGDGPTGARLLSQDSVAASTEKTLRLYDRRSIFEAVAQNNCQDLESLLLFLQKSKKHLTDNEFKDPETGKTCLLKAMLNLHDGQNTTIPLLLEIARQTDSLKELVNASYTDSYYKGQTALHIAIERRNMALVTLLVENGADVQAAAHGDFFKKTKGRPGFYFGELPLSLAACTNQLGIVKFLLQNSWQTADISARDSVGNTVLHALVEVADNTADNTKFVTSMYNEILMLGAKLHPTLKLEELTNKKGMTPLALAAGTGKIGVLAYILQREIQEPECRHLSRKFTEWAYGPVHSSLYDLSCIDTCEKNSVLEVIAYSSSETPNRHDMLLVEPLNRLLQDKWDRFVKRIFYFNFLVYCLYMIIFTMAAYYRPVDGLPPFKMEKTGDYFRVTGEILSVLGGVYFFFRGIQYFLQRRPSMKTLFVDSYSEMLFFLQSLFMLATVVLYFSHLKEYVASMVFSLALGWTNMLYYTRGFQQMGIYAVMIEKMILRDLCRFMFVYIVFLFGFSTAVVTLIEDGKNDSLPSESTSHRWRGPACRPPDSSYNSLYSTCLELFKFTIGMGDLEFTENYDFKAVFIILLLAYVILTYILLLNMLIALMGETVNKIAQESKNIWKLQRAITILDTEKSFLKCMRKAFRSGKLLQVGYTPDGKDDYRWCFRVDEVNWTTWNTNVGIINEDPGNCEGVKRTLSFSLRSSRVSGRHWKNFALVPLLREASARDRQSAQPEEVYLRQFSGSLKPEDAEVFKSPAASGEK
#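 Cells expressing TRPV1 were dye-loaded with Fluo-8 and read kinetically: 10 s baseline, 3 min after compound (agonist portion), then 2 min after EC20 capsaicin (allosteric enhancer portion). Calcium-bound dye fluorescence at 480/520 nm.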
# Sfp PPTase inh = Sfp phosphopantetheinyl transferase inhibition. Q9F4F7. Biochemical Sfp PPTase activity, qHTS. Potency, µM, for inactives: max response, negative = inhibition, most hits filed as inhibitors. hit rate 3.5% among 310,000. AID 1490; active = well fitted inhibition curve with a large enough effect; inconclusive = small, poorly fitted or top-dose-only effect, or another doubt; inactive = no such curve, though single readings can be large or run the other way;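 also: the enzyme is Sfp with the accession as filed and its product quenches rhodamine fluorescence; potency is read from the fitted curve at half-maximal effect; 0% = enzyme reaction without inhibitor and -100% = no enzyme wells; top concentration of the series not given in the record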
#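 Compounds were incubated with enzyme (final 15 nM) for 15 min at room temperature before substrate addition started the reaction. Fluorescence at 525 nm excitation, 598 nm emission was recorded immediately and after 30 minutes.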
# PINK1 expr mod = modulators of PINK1 expression. Potency, µM (top dose mostly 76.6 µM), for the others: at the highest dose activation (PINK1 increase), actives largely listed as activators. hit rate 0.2% among 410,000. PINK1 immunofluorescence, high-content cytometry, 24 h. AID 624263; active = well fitted activation curve with a large enough effect; inconclusive = small, poorly fitted or top-dose-only effect; inactive = flat fitted curve, though single readings scatter; cell line not stated here;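 also: potency is read from the fitted curve at half-maximal effect; % of control where 0% means no effect; nearly all actives have a fitted effect of over 65% in size; a mitochondrial uncoupler was the plate control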
#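 Stable cell line treated 24 h with compounds at 5 concentrations (CCCP controls), then fixed and immunostained for PINK1 plus nuclear and cell stains; PINK1 immunofluorescence quantified by laser-scanning microplate cytometry.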
# Active calls of the source: *; ? = inconclusive; . = no result given; & = joins results of further samples; [ ] = dose if it differs, or a comment.
SMILES,TRPML1 inh,ClpP mod,Menin-MLL FL inh,TRPML1 agonist,TRPV1 PAM,Sfp PPTase inh,PINK1 expr mod
Cn1nccc1C(=O)NC1CCCc2c1cnn2-c1ccc(F)cc1F (configuration not stated),12,-6.7%,.,0.2,-20,12%,-1.4%
COc1ccc(C(=O)N2CCN(C(=O)C3CCCO3)CC2)cc1[N+](=O)[O-] (configuration not stated),0,-0.1%,.,0.1,.,.,0.0%
CC(C)CC1CC(C)(c2csc(NNC(=O)c3ccccc3)n2)OC1=O (configuration not stated),0,1.3%,-3.7,2.4,-8,-6%,1.3%
Cc1cc(Br)c(NC(=O)COC(=O)CC2CC3CCC2C3)c(Br)c1 (configuration not stated),11,.,.,-0.3,.,.,1.0%
CSc1ccc(CNc2ccccc2)cc1,.,.,-2.6,.,3,-10%,.
Cc1cc(C(=O)CSc2nnc(-c3ccccc3)n2C)c(C)n1C,-3,1.1%,-2.0,-0.4,-21,?,4.1%[38.3 µM]
CC(C)Oc1ccc(CNC(=O)Cc2ccc(NC(=O)N3CCSc4ncccc43)cc2)cc1,-15,-16%,.,0.8,.,.,6.5%
CCOc1ccc(C(=O)NC(=S)Nc2cccnc2)cc1[N+](=O)[O-],-3,.,0.5,1.6,7,-25%,6.1%
CN(c1ccccc1)S(=O)(=O)c1ccc(C(=O)NCCc2ccccc2)cc1,-5,.,2.2,1.3,-14,12%,-1.5%
NC(CC(=O)O)c1ccc(F)cc1 (configuration not stated),-9,-0.6%,3.4,0.2,3,12%,1.7%
Cc1nc(N2CCN(c3ccccc3)CC2)c2c3c(sc2n1)CCC3,.,.,-1.8,.,4,?,.
Cc1cc(C)c2c(n1)nn1c(NCCN3CCOCC3)cc(C)nc21,-11,?,-1.0,0.2,0,3%,.
Cc1cc(Nc2cnc3ccccc3n2)n(-c2ccccc2)n1,16,-12%,0.0,0.8,-11,-5%,?
COC1CCC2(C)C(=CCC3C4CC(O)CC4(C)CCC32)C1 (configuration not stated),53,1.4%,.,1.3,.,.,12%
COc1ccc(Cn2cc(F)c(=O)n(C)c2=O)cc1[N+](=O)[O-],-10,?,3.0,-0.6,-16,8%,2.8%
CN(CC(=O)Nc1cccc(F)c1)C(=O)c1ccc(COc2ccccc2)cc1,-10,.,.,0.3,12,.,3.7%
O=C(CCN1C(=O)C2C3C=CC(C3)C2C1=O)N1CCN(c2ccccc2F)CC1 (configuration not stated),-13,1.2%,3.9,-0.5,-17,18%,1.0%
N#CCc1ccc(NC(=O)CSc2nnc(C3CC3)n2C2CC2)cc1,10,0.2%,.,0.0,-2,.,-1.6%
CCN1C(c2ccccc2)=C(c2ccccc2)S/C1=C/C=C1\SC(=S)N(C)C1=O,29,0.2%,?,0.0,3,?,0.4%
Cc1sc(NC(=O)CSc2n[nH]c(N)n2)c(C#N)c1C,12,.,.,-0.4,.,.,0.1%
CN(C)Cc1c(O)ccc2c(=O)c(-c3ccccc3)c(C(F)(F)F)oc12,30,-0.3%,-6.5,-0.4,7,4%,-1.0%
CCN(Cc1cc2cc(OC)ccc2[nH]c1=O)C(=O)Cc1ccc(OC)cc1,30,28µM*,0.6,-0.3,0,-10%,-0.1%
CCOC(=O)NC(=O)/C(C#N)=N\Nc1cccc(OC)c1,31,.,1.4,1.5,-4,0%,1.4%
CCC(C(=O)Nc1ccc(C)cc1)c1ccccc1 (configuration not stated),5,-0.6%,-1.9,1.4,-3,-3%,6.1%
Cc1cccc(NC(=O)C2CC3CCC2C3)c1C (configuration not stated),33,.,.,1.3,.,.,-0.8%
O=C(Nc1ccc(Cl)cc1Cl)c1cc(S(=O)(=O)NCc2ccc3c(c2)OCO3)ccc1F,-3,4.5%,.,3.3,.,.,-1.4%
CCOc1ccc(-c2nc(-c3cccs3)c(CC(=O)O)s2)cc1OC,-22,-3.6%,-0.5,1.0,10,-5%,0.4%
Cc1sc2c(c1C)c(=O)n(-c1cccc(C(F)(F)F)c1)c(=O)n2Cc1ccc(F)cc1,-17,-0.8%,.,2.2,.,.,3.5%
CCOC(=O)c1nnn(-c2nonc2N)c1-c1ccc(C)cc1,-8,2.3%,0.6,-0.7,27,9%,-1.0%
CC(=O)c1cn(CC(=O)Nc2ccc(C)c(C)c2)c2ccccc12,24,-0.6%,0.4,1.4,-6,22%,0.3%
COc1cc(OC)c(OC)cc1CNC(=O)c1ccc(S(=O)(=O)N2CCCCC2)cc1,7,-2.2%,.,1.9,3,.,-0.4%
CC(C)c1ccc(/C=C2\SC(=S)N(CCC(=O)N3CCCCC3CCO)C2=O)cc1 (configuration not stated),22,-0.3%,.,0.7,20,-18%,?
COc1cc(-c2noc(CCC(=O)Nc3cccnc3)n2)cc(OC)c1OC,0,-1.1%,0.7,0.1,-11,?,0.2%
COC(CNC(=O)c1cc(S(=O)(=O)N2CCc3ccccc32)ccc1F)OC,1,-0.3%,-0.3,1.0,-7,9%,-1.8%
O=C(C1CCCO1)N1CCN(C(=S)Nc2ccc(F)cc2)CC1 (configuration not stated),35,-1.0%,8.9,0.6,-7,-14%,1.1%
O=C(CC1SC(N2CCCCC2)=NC1=O)Nc1cccc(C(=O)O)c1 (configuration not stated),1,0.2%,2.6,-1.1,-1,-3%,1.9%
O=C1/C(=C\c2ccncc2)CCc2ccccc21,2,-1.2%,.,-0.3,-33,.,-1.5%
CCOC(=O)C(C#N)C(Cc1ccccc1)c1ccco1 (configuration not stated),12,0.3%,11,-1.3,-14,9%,-0.2%
CCC(C)n1c(SCc2c(F)cccc2Cl)nc2ccsc2c1=O (configuration not stated),-10,-1.6%,.,5.2,.,.,13%
COc1ccc(OC)c(CNc2ncnc3onc(-c4ccc(Cl)cc4)c23)c1,48,-4.7%,.,-0.5,.,.,3.1%
O=C(CSC1=NCCS1)Nc1cccc2ccccc12,0,-16%,0.2,-0.1,-28,-6%,-0.6%
O=C(CSc1nnc(-c2ccccn2)n1-c1ccccc1)Nc1ccc2c(c1)OCO2,-9,-0.3%,4.5,-0.7,19,-3%,3.1%
CCOc1cc(N2CCOCC2)c(OCC)cc1NC(=O)COC(=O)c1ccc([N+](=O)[O-])o1,-8,-1.6%,.,-0.6,.,.,0.0%
CC[C@@H]1C/C=C\Cc2ccccc2[C@H](C(=O)C[C@@H](O)CC(C)=O)OC1=O,-3,1.6%,.,-0.3,.,.,-0.3%
CCOc1ccc2nc(Cl)c(C3CC(c4ccco4)=NN3S(C)(=O)=O)cc2c1 (configuration not stated),-1,.,24,0.7,2,-29%,0.3%
CN(C)c1ccc(C(=O)N2CCCC2)cc1,-9,0.4%,1.9,0.6,-9,9%,0.6%
Cc1ccc(CNC(=O)c2nnn(CC(=O)Nc3cc(C)cc(C)c3)c2N)cc1,20,-2.4%,-2.4,-0.2,7,?,0.5%
CCCOC(=O)c1ccc(NS(=O)(=O)c2cccs2)cc1,13,2.0%,4.1,0.3,-4,-3%,0.6%
COc1ccc(/C=C/c2nnc(NC(=O)C(C)(C)C)s2)cc1,13,.,-2.7,1.7,-8,5%,0.6%
Cc1[nH]c2ccccc2c1/C=C(\C#N)C(=O)NC1CC1,-12,-3.4%,1.1,-0.5,12,10%,0.8%
CC(=O)Nc1ccc2c(c1)-c1ccc(F)cc1C2=O,20,-4.4%,.,-0.2,.,.,0.5%
COc1ccc(C2SCC(=O)N2c2ccc(F)cc2)cc1 (configuration not stated),-11,-1.5%,0.9,2.4,-6,6%,-3.5%
COc1ccc(CC(=O)NCc2csc(-c3cccs3)n2)cc1OC,-4,.,4.4,-1.2,-23,4%,-1.2%
O=C(COc1ccc(S(=O)(=O)N2CCOCC2)cc1)N1CCCCCC1,1,.,-0.3,0.6,7,7%,0.0%
CCOc1cccc2cc(C(=O)N3CCN(C/C=C/c4ccccc4)CC3)c(=O)oc12,-5,-0.2%,6.6,3.8,27,-12%,-1.4%[38.3 µM]
COc1ccc(C2Nc3ccccc3-n3c(-c4ccccc4)c4c(=O)n(C)c(=O)n(C)c4c32)cc1 (configuration not stated),7,?,.,2.0,.,.,3.6%
C=C(C(=O)O)C1CCC2(C)CCCC(C)(O)C2C1 (configuration not stated),7,0.9%,-6.0,0.1,13,12%,-0.3%
COCCCNC(=O)c1ccc(OC)c(OC2CCN(C(C)C)CC2)c1,13,-2.2%,0.8,0.8,-6,5%,2.2%
CCN(C(=O)COC(=O)/C=C/c1ccccc1Cl)c1c(N)n(Cc2ccccc2)c(=O)[nH]c1=O,-1,4.1%,.,-0.2,8,.,-6.3%
COc1ccc(C2C=C(Nc3ccccc3)C(=O)N2c2ccccc2)cc1OC (configuration not stated),6,?,8.9,1.3,5,?,0.1%

# Overlap with the part before: three entries, then new ones.
SMILES,TRPML1 inh,ClpP mod,Menin-MLL FL inh,TRPML1 agonist,TRPV1 PAM,Sfp PPTase inh,PINK1 expr mod
COCCCNC(=O)c1ccc(OC)c(OC2CCN(C(C)C)CC2)c1,13,-2.2%,0.8,0.8,-6,5%,2.2%
CCN(C(=O)COC(=O)/C=C/c1ccccc1Cl)c1c(N)n(Cc2ccccc2)c(=O)[nH]c1=O,-1,4.1%,.,-0.2,8,.,-6.3%
COc1ccc(C2C=C(Nc3ccccc3)C(=O)N2c2ccccc2)cc1OC (configuration not stated),6,?,8.9,1.3,5,?,0.1%
C[N+](C)(C)CCOC(N)=O,5,0.7%,3.9,2.3,-17,-5%&-1%&11%,1.0%
CCOC(=O)CNC(=O)C1CCCCC1,.,1.6%,.,-0.2,.,.,-0.6%
Clc1ncnc2scc(-c3ccccc3)c12,21,1.2%,2.6,0.5,-15,23%,.
CCOC(=O)C(Cc1ccccc1)C(=O)NCc1cccnc1 (configuration not stated),0,0.5%,-5.2,0.1,-5,3%,2.5%
c1cncc(CNc2ccnc(-c3cccnc3)n2)c1,.,.,4.0,.,.,-1%,-0.5%
Brc1ccc2nc(-c3ccco3)c(Cc3ccsc3)n2c1,.,-5.0%,.,-0.6,.,.,-0.7%
O=C(Nc1ccc(S(=O)(=O)N2CCCC2)cc1)c1cnccn1,0,.,-6.9,1.5,-18,4%,0.9%
O=C(Nc1nc2ccc(F)cc2s1)c1nc(S(=O)(=O)Cc2ccccc2F)ncc1Cl,1,0.6%,.,-0.4,.,.,0.7%
O=C(COc1cccnc1[N+](=O)[O-])Nc1cccc(Br)c1,-5,.,.,0.1,.,.,5.7%
